VACV Venus inh: vaccinia inhibition (Venus reporter) | Vaccinia virus Venus reporter expression, fluorescence | Potency, µM (top dose mostly 36.5 µM), for inactives: top-dose activity change, negative = inhibition, most hits filed as inhibitors | actives 0.46% (n = 330,000) | AID 720580; active means well fitted inhibition curve with a large enough effect; inconclusive means small, poorly fitted or top-dose-only effect; inactive means no such curve, though single readings can be large or run the other way; tested in A549 cells; note: nearly all actives have a fitted effect of over 30% in size; inactives centre near -10
Vaccinia mCherry: inhibitors of vaccinia virus infection (mCherry reporter signal). Vaccinia virus mCherry reporter infection, fluorescence; about a quarter of the inactives have no number. actives 0.63% (n = 310,000). AID 720579. Potency, µM (top dose mostly 36.5 µM), for the others: at the highest dose activity change, negative = inhibition, actives largely listed as inhibitors; active = well fitted inhibition curve with a large enough effect; inconclusive = small, poorly fitted or top-dose-only effect; inactive = no such curve, though single readings can be large or run the other way; tested in A549 cells; note: nearly all actives have a fitted effect of over 35% in size; inactives centre near -10
An asterisk follows results filed as active; i = inactive; ? = inconclusive; nt = no result given; & = joins results of further samples; [ ] = another dose, or the depositor's remark. % is set by controls: 0 for no effect and ±100 for the full control effect; potency is the fitted concentration of half-maximal effect. Compounds were not picked by outcome; 0.88% or so of the library scored in one or more.

Below each compound – Vaccinia mCherry	VACV Venus inh
[1] COc1ccc(NC(=O)Cn2c(=O)n(C(C)C)c(=O)c3oc4ccccc4c32)cc1Cl
  -13%	-9%
[2] O=C(CN1C(=O)c2ccccc2S1(=O)=O)c1ccc(OC(F)F)cc1
  -9%	2%
[3] O=C(COc1ccccc1)N1CCc2ccccc21
  -14%	-17%
[4] COc1ccc(N2CCN(C(=O)c3c(Cl)cnn3C)CC2)cc1
  -3%	-22%
[5] Cc1cc(NC(=O)CSc2nnc3ccccn23)no1
  -14%	-2%
[6] O=C(NS(=O)(=O)Oc1ccccc1F)OC[C@@H]1CCCN2CCCCC12 (some centres undefined)
  -16%	-12%
[7] O=C(N/N=C\c1cn[nH]c1-c1ccccc1)c1ccc([N+](=O)[O-])cc1
  i	-23%
[8] COc1cc(C(c2sc3nc(C)nn3c2O)N2CCOCC2)cc(OC)c1OC (centres undefined)
  -10%	3%
[9] COc1ccc(OCCn2cnc(Cl)c2Cl)cc1
  i	12%
[10] COc1ccc(CCNC(=O)c2cc3c(=O)n(C)c4ccccc4c3n2C)cc1OC
  -3%	-6%

Random excerpt: 6 entries already listed
Below each compound – Vaccinia mCherry	VACV Venus inh
[3] O=C(COc1ccccc1)N1CCc2ccccc21
  -14%	-17%
[9] COc1ccc(OCCn2cnc(Cl)c2Cl)cc1
  i	12%
[1] COc1ccc(NC(=O)Cn2c(=O)n(C(C)C)c(=O)c3oc4ccccc4c32)cc1Cl
  -13%	-9%
[7] O=C(N/N=C\c1cn[nH]c1-c1ccccc1)c1ccc([N+](=O)[O-])cc1
  i	-23%
[10] COc1ccc(CCNC(=O)c2cc3c(=O)n(C)c4ccccc4c3n2C)cc1OC
  -3%	-6%
[5] Cc1cc(NC(=O)CSc2nnc3ccccn23)no1
  -14%	-2%

More entries:
Below each compound – Vaccinia mCherry	VACV Venus inh
[11] Cn1cnc2c(NCc3ccco3)ncnc21
  39%&4%[activator]	-7%&6%
[12] O=C1C(O)CCN1C1CCCCC1 (centres undefined)
  i	-9%
[13] Cc1cc2c(c(-c3cnccn3)c1)OC(CNC(=O)c1cc(C(C)C)[nH]n1)C2 (centres undefined)
  i	-17%
[14] COc1ccc(NC(=O)CN(C)C(=O)C(C)N2C(=O)c3ccccc3C2=O)cc1 (centres undefined)
  -9%	-4%
[15] CCCn1c(CCC(=O)Nc2ccccc2OC)nc2cccnc21
  -11%	9%
[16] CCCc1nnc(SCC(=O)Nc2cccc(C(F)(F)F)c2)o1
  -1%	-4%
[17] Cc1ccccc1S(=O)(=O)c1c(C)cc(C)n(C)c1=O
  -10%	-18%
[18] COc1cc2c(cc1OC)C(C)N(CCN1C(=O)c3ccccc3C1=O)CC2 (centres undefined)
  i	-7%
[19] Cc1[nH]cnc1CN1CCc2c(c3ccccc3n2C)C1=O
  -14%	-12%
[20] COc1cc(C(=O)N(Cc2cccnc2)c2nc3cc(C)c(C)cc3s2)cc(OC)c1OC
  ?	-27%[7.34 µM]
[21] CS(=O)(=O)N1CCN(C(=O)NC2CCCCC2)CC1
  -17%	-13%
[22] CC1CCN(CCCCOc2ccccc2-c2ccccc2)CC1
  ?	?
[23] CN(Cc1ccccc1)C(=O)C1CCN(S(=O)(=O)Cc2ccccc2)CC1
  0%	-8%
[24] COc1ccc(CCn2c(=O)c3cccnc3n(Cc3cccc([N+](=O)[O-])c3)c2=O)cc1OC
  -3%	-3%
[25] CCOC(=O)c1ccc(NC(=O)c2noc3c2CCCC3)cc1
  i	-10%
[26] CCN1CCN(C(=O)N(c2ccccc2)c2ccccc2)CC1
  -21%	-3%
[27] O=C(O)c1ccccc1SCC(=O)N1c2ccccc2Sc2ccccc21
  i	12%
[28] C[C@@H]1CCCCO[C@H](CN(C)C(=O)Nc2cccc3ccccc23)[C@@H](C)CN([C@H](C)CO)C(=O)c2cc(N(C)C)ccc2O1
  -15%	-23%
[29] CCCCN(C)C(=O)CN1C(=O)CCn2nc(-c3cn(C)c4ccccc34)cc21
  -12%	-10%
[30] CCn1c(=O)c2cc(C(=O)NCCCN3CCN(c4ccc(F)cc4)CC3)sc2c2ccccc21
  -21%	-20%
[31] CC(=O)Nc1ccc(C)cc1NC(C)=O
  i	?
[32] COC(=O)CC(NC(=O)c1ccco1)c1cccc2ccccc12 (centres undefined)
  i	-8%
[33] Cn1c(SCC(=O)NC2CC2)nnc1-c1cccs1
  -11%	5%
[34] O=C(Nc1ccc(F)cc1)c1ccccc1F
  -12%	-3%
[35] CCOC(=O)c1ccccc1NC(=O)CSc1ccc(-c2cccs2)nn1
  -4%	5%
[36] CC1=NN(c2ccccc2)C(=O)/C1=C/N(C)C
  -14%	-11%
[37] COc1ccc(Oc2ncccc2[N+](=O)[O-])cc1
  -21%	-1%
[38] Cc1c([N+](=O)[O-])c([N+](=O)[O-])nn1CC(=O)N1CCOCC1
  -2%	-10%
[39] CCC(C)NC(=O)c1ccc(NC(=O)C2=C(C)OCCS2)cc1 (centres undefined)
  -4%	-3%
[40] COC(=O)c1ccccc1NC(=O)c1ccco1
  nt	-27%

Results in sequence from above.
Nos. 32–36 in Vaccinia mCherry: i, -11%, -12%, -4%, -14%
Nos. 32–36 in VACV Venus inh: -8%, 5%, -3%, 5%, -11%

Remaining list, next part
Below each compound – Vaccinia mCherry	VACV Venus inh
[41] Cc1ccc(NC(=O)c2n[nH]c(=O)c3ccccc23)cc1S(=O)(=O)N1CCOCC1
  -23%	-13%
[42] CCC(=O)Nc1cccc(C2=NOC3(C2)C[C@H](C(N)=O)N(C(=O)CC#N)C3)c1 (some centres undefined)
  i	3%
[43] O=S(=O)(c1ccccc1)N1CCN=C1SCc1cccnc1
  i	-18%
[44] Cc1ccc(CN2CCC(CNC(=O)Nc3cccc(Cl)c3C)C2)cc1 (centres undefined)
  -28%	-20%
[45] Cc1cccc(C(=O)NCC(=O)OCc2cc(=O)n3nc(C)sc3n2)c1
  -3%	-7%
[46] NS(=O)(=O)c1ccc(NC(=O)c2ccc(-c3ccccc3)cc2)cc1
  -3%	-12%
[47] CN1C(=O)N(C)c2ccc(C=O)c3cccc1c23
  i	5%
[48] Cc1ccc2oc(=O)c(/C=C(\O)c3sc(C)nc3C)nc2c1
  -8%	-18%
[49] COc1ccc(Cl)cc1S(=O)(=O)Nc1ccc2[nH]c(=O)[nH]c2c1
  -6%[7.34 µM]	-5%[7.34 µM]
[50] COc1ccc(NC(=O)CN(C)C(=O)c2cnc(Cl)c(Cl)c2)cc1
  i	-3%
[51] CCc1ccc(-c2nc(CS(=O)CC(=O)NCCCN3CCC(C)CC3)c(C)o2)cc1 (centres undefined)
  12%[7.34 µM]	1%[7.34 µM]
[52] CC(c1nnc(SCC(=O)NC(=O)NCc2ccco2)n1-c1ccc(Cl)cc1)N(C)C (centres undefined)
  -13%	2%
[53] CCOC(=O)[C@]12CCC=C1N(Cc1ccccc1)C(=O)[C@H](CC(=O)NCC1CCCCC1)C2
  i	-12%
[54] Cc1nn(C)c2c1c(C(F)(F)F)cc(=O)n2CC(=O)NCc1ccc(OC(C)C)cc1
  -5%	-5%
[55] O=C(CN(c1cc(C(F)(F)F)ccc1Cl)S(=O)(=O)c1ccccc1)NCc1cccnc1
  i	-14%
[56] C=CCOc1ccccc1CN(CCc1ccccc1)C(=O)c1cccc(S(C)(=O)=O)c1
  -8%	-7%
[57] O=C1C(=O)N(Cc2cccnc2)C(c2ccccn2)/C1=C(/O)c1ccc(Br)cc1 (centres undefined)
  -13%	-16%
[58] CC1(C(=O)NS(=O)(=O)C2CC2)CCCN(C(=O)c2ccccc2C(F)(F)F)C1 (centres undefined)
  45%[activator]	-6%
[59] CC1=C(C(=O)OCc2ccccc2)C(/C=C/c2ccccc2)N2C(=O)CCSC2=N1 (centres undefined)
  -7%	-17%
[60] N#CC1=C(N)Oc2nc[nH]c(=O)c2C1c1cccs1 (centres undefined)
  6%	1%
[61] COc1ccc(-c2csc(C(C)(O)c3cccc(F)c3)n2)cn1 (centres undefined)
  -1%	-14%
[62] Cc1ccc2ncc(C(=O)Nc3cccc(C(F)(F)F)c3)c(=O)n2c1
  -12%	0%
[63] CCOc1ccccc1CNC(=O)c1oc2c(c1C)-c1nn(Cc3cccc(Cl)c3)cc1CC2
  -21%	-8%
[64] O=C(CCl)NC1CCCc2ccccc21 (centres undefined)
  ?	?
[65] C[C@@H]1CN([C@@H](C)CO)C(=O)CCCn2nncc2CO[C@@H]1CN(C)C(=O)c1cc(-c2ccccc2)on1
  -13%	-5%
[66] COc1cc(CC(=O)N2CCN(S(=O)(=O)c3ccc(C(C)C)cc3)CC2)cc(OC)c1OC
  -2%	-29%
[67] CCc1nnc(NC(=O)CCc2nc(C3=CCN(C)CC3)no2)s1
  -13%[1.46 µM]	-14%
[68] COc1ccc(/C=N/N=C2\SC(CC(=O)O)C(=O)N2c2ccccc2)cc1 (centres undefined)
  -4%	-4%
[69] CC(C)(C)OC(=O)C(Cc1ccc(OC(C)(C)C)cc1)NC(=O)CNC(=O)CNC(=O)OCc1ccccc1 (centres undefined)
  -21%	-18%
[70] CN(C)CCCN(C(=O)c1ccc(Br)s1)c1nc2cc3c(cc2s1)OCCO3
  -20%	?
[71] Cn1nnnc1SCC(=O)N1CCN(c2cccc(Cl)c2)CC1
  nt	-27%
[72] COc1ccc(C2=Nc3ccc(C)cc3C(c3ccccc3)N2CC(=O)NN)cc1 (centres undefined)
  -9%	-5%
[73] Cc1ccc(C(=O)CN(CCCC(N)=O)C(=O)c2ccncc2)cc1
  i	-5%
[74] Cc1cccc(CCNC(=O)c2cc3ccccn3n2)c1
  -1%	-4%
[75] CC(NC(=O)c1cc(COc2ccc(-n3cncn3)cc2)on1)c1ccc(F)cc1 (centres undefined)
  -21%	-30%
[76] O=C(COC(=O)C1=NNC(=O)CC1)NCCc1ccccc1
  -2%	-10%
[77] O=C(Cc1ccccc1)NC1CC(=O)N(c2ccc3c(c2)OCCO3)C1 (centres undefined)
  -2%	-3%
[78] COc1ccc(Br)cc1C(=O)Nc1cccc(-c2nnc(-c3ccco3)o2)c1
  i	-2%
[79] COc1ccc(NC(=O)c2cc(S(=O)(=O)N3CCCC3)c[nH]2)cc1
  -19%	-6%
[80] CCOC(=O)Nc1ccc(OCc2nnc3c4ccccc4c(C)nn23)cc1
  -3%	-6%
[81] Cc1cc(C)c(OCC(=O)OCC(=O)N(C)C2CCS(=O)(=O)C2)c(C)c1 (centres undefined)
  -7%	-11%
[82] Cc1ccc(-c2[nH]nc3c2C(C)C(C#N)=C(N)O3)cc1 (centres undefined)
  i	-9%
[83] COc1cc2c(cc1OC)CN(C(=O)c1ccc(OC)c(S(=O)(=O)N3CCOCC3)c1)CC2
  -1%	-13%
[84] COc1ccc2c(c1)c(C(=O)N/N=C/c1cn(C)c3ccccc13)c(C)n2C
  -8%[7.34 µM]	3%[7.34 µM]
[85] Cc1ccc(Nc2n[nH]c(=S)s2)c(C)c1
  -7%	-11%
[86] O=C(NCC1=C(c2ccc3ccccc3c2)C[C@@H]2CC[C@H]1N2Cc1ccco1)c1ccncc1
  -29%	-25%
[87] CCCC(=O)NC(=S)Nc1cccc(Cl)c1N1CCCC1
  -20%	-9%
[88] CCc1nc2cc(NC(=O)C3(C)CCCN(C(C)C)C3)ccc2o1 (centres undefined)
  8%	8%
[89] CC12CC(NC(=O)N1c1ccc(C(=O)N3CCN(c4ccc(F)cc4)CC3)cc1)c1ccccc1O2 (centres undefined)
  -25%	-14%
[90] c1ccc(CCc2nc(-c3ccncc3)no2)cc1
  -7%	-24%

The list goes on:
Below each compound – Vaccinia mCherry	VACV Venus inh
[91] CC(C)NC(=O)N1Cc2cc(C(=O)NC3CCCC3)nc(-c3cccc(-c4cccnc4)c3)c2[C@H]1CCO
  25%	-7%
[92] Cc1cccc2cc(C#N)c(SCC(=O)N3CC(=O)Nc4ccccc43)nc12
  nt	?
[93] CCCCn1c(SCC(=O)OCC)nc2c(sc(=S)n2-c2ccccc2OC)c1=O
  -12%	2%
[94] Clc1ccc(Nc2ncnc3c2nnn3Cc2ccccc2)cc1
  9%	0%
[95] COc1ccc(C)cc1-n1nnc(C(=O)Nc2cccc(SC)c2)c1C
  -24%	-10%
[96] COc1ccc2c(c1)C(=O)N(c1ccc(C)cc1C)C(=O)C2(C)C
  i	-12%
[97] COc1cccc2c1cc1c(=O)n(CC(=O)NCc3ccco3)nc(C)n12
  -8%	-16%
[98] C[C@H]1CN=C(Nc2ccccc2)N1CCCC1CCCC1
  ?	-16%
[99] CN1CCN(C(=O)/C=C/c2ccc3c(c2)OCO3)CC1
  -15%	-16%
[100] Cn1nnnc1Sc1ccc([N+](=O)[O-])cc1Cl
  10µM*	?
[101] CC(NC(=O)Nc1nnc(C(F)(F)F)s1)N1C(=O)C2C3C=CC(C3)C2C1=O (centres undefined)
  i	-10%
[102] CC1(C(=O)O)CCC(C(=O)N2CCCCC2)C1(C)C (centres undefined)
  i	-9%
[103] COCCNC(=S)NNc1cccc(C(=O)O)c1
  i	-3%
[104] CC1CCCCN1C(=O)CCn1c(=S)oc2ccccc21 (centres undefined)
  i	-11%
[105] COc1ccccc1NC(=O)C(=O)NCC1CCCN1S(=O)(=O)c1cccs1 (centres undefined)
  -21%	-12%
[106] O=C(Cc1ccccc1)Nc1cccc(C(=O)N/N=C/c2ccco2)c1
  -1%	-9%
[107] CCc1ccc(NC(=O)CSc2nc(=O)n(CCN(C)C)c3c2CCCC3)cc1
  ?	-13%
[108] CCOC(=O)Cn1c(=O)oc2cc(S(=O)(=O)N3CCCC(C)C3)ccc21 (centres undefined)
  6%	-5%
[109] COc1ccc(NC(=O)c2oc3ccccc3c2NC(=O)c2cc(C)cc(C)c2)c(OC)c1
  8%	-3%

Bioassay records from PubChem BioAssay.
